# Screens deposited in PubChem BioAssay by several laboratories.
# Sa ugtP lethal – kills S. aureus RN4220 lacking UgtP. S. aureus RN4220 ugtP deletion, OD600 growth, 16 h; some inactives read as strong as hits. growth inhibition, % (test concentration not listed). 330,000 tested, 0.54% active. AID 1259309;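 active = z-score under -3 and OD600 up to 0.15 on both plates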;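 also: plate controls were untreated wells for no effect and antibiotic for full effect; wells of about 80 µL received 100 nL stock; the first replicate is given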
# BJeLR lethal – BJeLR cell viability loss; BJeLR (HRASV12) viability, CellTiter-Glo ATP luminescence, 48 h; reference of the scale not given here; inhibition, % (concentration not given with the values); 300,000 tested, 0.17% active;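 active = replicate mean above 50%; inconclusive = above 50% but judged a plate artefact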;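 also: 50 nL library stock added to about 25 µL; numbers are from one replicate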
# Sa RN4220 lethal – S. aureus RN4220 growth inhibition; OD600, 16 h; inhibition, % (no concentration beside the values); 330,000 tested, 0.33% active;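 active = z-score of -3 or lower and OD600 up to 0.18 on both plates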;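 also: plate controls were untreated cells for no effect and reference antibiotic for full effect; stock transfer was 100 nL into about 80 µL; one replicate is shown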
# Bead autofluor – flagged as autofluorescent in microsphere protease counterscreen | compound autofluorescence counterscreen, microsphere flow cytometry; hits give high values | fluorescence intensity (test concentration not listed) | 360,000 tested, 3.1% active;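 active = at least 3 SD above the mean of all compounds, about 16000 in these data; inconclusive = too few beads counted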;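 also: 100 nL of 1 mM stock went into each well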
# PrP UTR inh – inhibition of PrP 5' UTR reporter expression; cell-based PrP 5' UTR mRNA reporter, plate reader; inhibition, % (concentration not given with the values); 340,000 tested, 0.35% active;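 active = every replicate at 50% or more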;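 also: 0 = median of the neutral control wells; tested in H4 reporter cells; numbers are from one replicate; inactives centre near -14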
# Mtb hypoxia rep – inhibitors of hypoxia-regulated fluorescent reporter in Mycobacterium tuberculosis | M. tuberculosis hypoxia-regulated fluorescent reporter, fluorescence | fluorescence inhibition, % (concentration not given with the values) | 300,000 tested, 0.1% active | AID 1159583;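 active = 35 to 45% if threefold the growth effect, above 45% if 1.5-fold the growth effect; inactive = the rest, general growth blockers included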;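 also: wells of about 50 µL received 100 nL stock; 0% = vehicle wells and 100% = reference inhibitor wells; whole bacteria with a GFP reporter of the hypoxia response; strong numbers were not always called active; many hits fall short of the cut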
# Mtb hypoxia rep growth – also measured in Mtb hypoxia rep; calls as there; growth inhibition, %; measured here: M. tuberculosis growth (absorbance);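 0% = vehicle and 100% = reference antibiotic; read after six days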
# An asterisk follows results filed as active; u = inconclusive; x = not tested or not shown; & = joins results of further samples.
SMILES,Sa ugtP lethal,BJeLR lethal,Sa RN4220 lethal,Bead autofluor,PrP UTR inh,Mtb hypoxia rep,Mtb hypoxia rep growth
N/C(=N\OC(=O)Cc1ccc(Cl)cc1)c1ccncc1,17,2,4.7,4074,-8,4,23
CCC1=[N+]([O-])C(C)(/C(C)=N\O)N(O)C1(C)C (configuration not stated),x,-5,x,9527,-14,x,x
Cc1ccc2c(c1)C(=O)CCN2,10,1,2.2,6981,-16,12,6
CCc1cc(-c2n[nH]c(C)c2-c2nc3ccccc3s2)c(O)cc1OCC(=O)NN,4,2,-17,4241,-15,2,5
CC(=O)Nc1ccc(S(C)(=O)=O)c(C)c1,23,8,7.8,2505,-12,-1,6
CCc1ccccc1NNC(=O)c1cc(C)on1,9,5,1.2,4183,-31,6,6
Cc1cc(Cl)cc(Br)c1OCCCNCC(C)O (configuration not stated),6,13,1.1,5460,-18,10,4
COc1ccc(SCC(Cc2ccccc2)N2CCN(C)CCC2=O)cc1 (configuration not stated),-4,x,-0.4,x,x,-3,2
Cc1c(C(=O)O)oc2c3c(ccc12)OCCO3,-3,1,0.7,2646,-29,x,x
COc1cc(CNCCc2ccc3c(c2)OCO3)cc(OC)c1OC,3,-5,1.7,5186,8,17,1
Cc1ccc(-c2cc(C(=O)Nc3ccncc3)c3ccccc3n2)cc1,8,3,-2.5,5612,-26,8,8
Cc1cc(C)cc(NC(=O)Cn2c(=O)oc3cc(S(=O)(=O)N4CC(C)CC(C)C4)ccc32)c1 (configuration not stated),9,-4,-2.9,5562,-11,-1,0
CN1CCCC(CC2c3ccccc3Sc3ccccc32)C1 (configuration not stated),-2,x,-8.0,4189,-4,11,10
CN1CCN(C(=O)CN(C)S(=O)(=O)c2cc(Cl)ccc2Cl)CC1,2,6,-2.8,2891,-61,0,7
COc1ccc(OC)c(N2C(=O)CC(NNC(=O)c3ccc4c(c3)OCO4)C2=O)c1 (configuration not stated),-9,x,1.0,3643,-6,-7,-6
COc1ccccc1C=NNC(=O)c1cc2c(OC)c(OC)ccc2[nH]1,1,x,3.9,x,x,12,6
CCOc1ccc2nc(NS(=O)(=O)Cc3ccccc3)sc2c1,0,15,-4.3,9520,-30,6,7
O=C(COC(=O)c1ccc(Cl)cc1O)NCCN1C(=O)CSC1=O,10,1,5.5,3502,-14,5,-3
O=C(Cc1ccc([N+](=O)[O-])cc1)OCc1ccc([N+](=O)[O-])cc1,9,-2,3.1,3263,-26,6,-1
CC(C)c1ccc(NNC(=O)C2CCC2)cc1,0,-9,2.4,4161,-12,0,2
O=C(O)CCC(=O)NNc1nc(-c2ccccc2)c2cc(Cl)ccc2n1,13,-5,3.4,3015,-24,-5,3
O=C(N/N=C\c1cc(Br)cs1)c1ccncc1,x,1,x,5896,-22,x,x
Cc1nc2c(=O)n(C)c(=O)n(C)c2nc1Cl,14,0,17,8230,-6,23,16
CCCCn1c(N)c(N(CC(C)C)C(=O)CN(C)S(=O)(=O)c2ccc(NC(C)=O)cc2)c(=O)[nH]c1=O,6,6,2.6,4976,-25,-4,6
Cn1cnc2c(N/N=C/c3cccs3)ncnc21,x,1,x,4209,-60,x,x

# The results go on.
SMILES,Sa ugtP lethal,BJeLR lethal,Sa RN4220 lethal,Bead autofluor,PrP UTR inh,Mtb hypoxia rep,Mtb hypoxia rep growth
COc1ncnc2c1N[C@@](C)(O)c1c(F)c(F)c(F)c(F)c1S2,-2,-2,1.1,2405,-22,x,x
CSc1ccccc1NC(=O)c1cccs1,-9,1,8.7,3771,-5,x,x
CN1CCN(CCCN(Cc2ccco2)C(=S)Nc2ccc(Cl)cc2)CC1,6,6,1.3,4530,1,2,-3
O=C(c1ccc[nH]c1=S)N1CCN(S(=O)(=O)c2ccc(Br)cc2Cl)CC1,2,-3,2.0,5467,-16,7,13
O=[N+]([O-])c1ccc2nc(CCCO)[nH]c2c1,-5,-3,3.8,4480,-51,-2,-5
Cc1cc(C)c2nc(N3CCN(C(=O)c4cccs4)CC3)sc2c1,13,-2,6.0,u,-14,5,0
Cc1cccc(Nc2ccc(NCc3ccccc3)nn2)c1,7,3,-1.8,3286,5,-2,5
Cn1cc(S(=O)(=O)N2CCCC2)cc1C(=O)O,7,x,2.6,9111,-29,6,-1
COc1ccc(-c2ccc(/C=N/N3C(=O)C4C5C=CC(C6CC56)C4C3=O)o2)c([N+](=O)[O-])c1 (configuration not stated),x,-5,x,2152,-32,x,x
O=C(Cn1cc(S(=O)(=O)N2CCN(c3ccccc3F)CC2)c2ccccc2c1=O)NCCCN1CCCCCC1,6,4,1.2,5531,-23,5,5
CC1CC(O)(CC(O)(c2ccccc2)c2ccccc2)C(C)CN1C (configuration not stated),8,-7,2.6,3783,-16,-2,-1
CC1CN(C(C)CO)C(=O)c2cccc(NC(=O)Nc3ccc(C(F)(F)F)cc3)c2OC1CN(C)S(=O)(=O)c1cccs1 (configuration not stated),-20,x,-7.1,x,x,-4,15
COC(=O)C(CC(C)C)NC(=O)c1ccc([N+](=O)[O-])c(C)c1 (configuration not stated),3,28,3.4,3846,-9,x,x
CCOC(=O)c1ccc(NC(=O)CN2CCN(C(=O)c3ccco3)CC2)cc1,11,-3,4.6,4510,-1,2,0
CCCCn1c(N)c(N(CCC(C)C)C(=O)C2CC(=O)N(c3ccc4c(c3)OCCO4)C2)c(=O)[nH]c1=O (configuration not stated),x,-1,x,6066,-6,x,x
Cc1ccc(C)c(NC(=O)CCC(=O)NN=Cc2ccc[nH]2)c1,1,x,4.2,x,x,21,20
COc1ccc(OC)c(S(=O)(=O)N2CCCC(C(=O)N3CCOCC3)C2)c1 (configuration not stated),-2,5,1.6,6183,-21,20,8
CC1(C)OC2CC3C4CC=C5CC(O)CCC5(C)C4CCC3(C)C2(C(=O)CO)O1 (configuration not stated),5,x,16,3279,-62,11,9
Cc1cccn2c(=O)c3cc(C(N)=S)c(=N)n(CCCOC(C)C)c3nc12,-7,1,5.6,3782,19,-5,0
CC(C)[C@@H](C(=O)N1CCN(C(=O)OC(C)(C)C)CC1)n1cc(CCO)nn1,x,-6,x,3566,-9,x,x
CC(=O)Nc1ccc(NC(=O)CSc2nccn2Cc2ccccc2)cc1,-2,-4,-0.1,20023*,-16,-7,19
COc1ccccc1C(=O)NC1CCN(C(=S)NCCc2ccccc2)CC1,-3,-4,0.0,3636,-15,-9,-9
CCc1ccc(NC(=O)C(=O)c2ccccc2NC(C)=O)cc1,7,x,3.5,4305,-89,8,10
O=C(NNc1nc2c(F)cc(F)cc2s1)C1=COCCO1,8,7,0.3,4430,-14,7,0
COc1ccc(-c2oc3ccc(N4CCOCC4)cc3c2C#CCO)cc1,x,10,x,4039,-22,x,x

# The listing continues:
SMILES,Sa ugtP lethal,BJeLR lethal,Sa RN4220 lethal,Bead autofluor,PrP UTR inh,Mtb hypoxia rep,Mtb hypoxia rep growth
CCOc1ccc(CCNC(=O)c2cccs2)cc1OCC,6,25,3.9,3723,-21,8,6
CCOC(=O)C(CC)/C(C)=N/NC(=O)c1ccccc1[N+](=O)[O-] (configuration not stated),x,5,x,10637,-34,x,x
Cc1oc(-c2ccc(Cl)cc2)nc1CN1CCC(C(=O)N2CCc3ccccc3C2)CC1,10,-3,1.0,4732,3,x,x
O=C(c1ccco1)N(Cc1ccco1)Cc1cc2ccccc2[nH]c1=O,2,1,5.0,5847,-33,1,-7
CCN(CC(=O)Nc1ccc(NC(C)=O)cc1)C(=O)c1ccccc1CCc1ccccc1,-1,-5,0.5,u,-18,-6,0
Cc1ccc(-n2c(-c3ccccc3)c[n+]3c2CCC3)cc1,0,17,2.7,4662,-11,8,2
Cc1ccc(C2CC(c3ccccc3Cl)n3nc(N)nc3N2)cc1 (configuration not stated),6,-1,5.3,6283,-16,x,x
COc1ccccc1NC(=O)Nc1ccnn1Cc1cccs1,-4,1,-0.7,4166,-26,5,-3
CCN1CCN(C(=O)c2ccc(Cn3c(=O)[nH]c4cc(OC)c(OC)cc4c3=O)cc2)CC1,-5,-11,-0.6,3800,-20,9,13
Cc1cc(C)c(C(=O)COC(=O)c2cc([N+](=O)[O-])ccc2NCCO)cc1C,0,-9,4.8,2485,-5,8,8
CCn1cc(C(=O)N2CCN(Cc3ccc4c(c3)OCO4)CC2)c2cc(OC)c(OC)cc2c1=O,12,-2,5.5,3863,-26,-2,0
COC(=O)C1=C(C)NC(=O)C1=Cc1ccc(CNS(=O)(=O)c2ccc(C)cc2)o1,0,x,6.9,x,x,4,3
CC(C)CN1CCN(Cc2cccc3nccnc23)CC1CCO (configuration not stated),0,-4,3.7,2539,3,3,8
O=C(CN1CCSC1=O)N1CCN(S(=O)(=O)c2ccc(F)cc2)CC1,10,x,1.6,4538,-30,-2,-3
CC[C@]12c3[nH]c4cc(-c5ccco5)ccc4c3CCN1C(=O)[C@@H](CC(=O)NCc1ccco1)C[C@@H]2C(=O)N1CCN(C(=O)c2ccco2)CC1,2,x,-0.9,3479,-13,-2,1
Cc1ccccc1NC(=O)c1ccc(Cl)c(NC(=O)c2ccncc2)c1,1,5,1.9,2628,-10,7,4
O=C(NCc1ccccc1)C1=CC(C2CCCCC2)CC(OCc2ccc(CO)cc2)O1 (configuration not stated),1&-15,x,-4.2&-4.2,x,x,8&13,-1&8
O=C(NCCCN1CCOCC1)c1ccc2c(c1)N(Cc1c(F)cccc1Cl)C(=O)c1ccccc1S2,-5,0,-2.1,5768,-3,-6,1
CCC(=O)NC(Cc1ccccc1)c1ccc2c(c1)OCCCO2 (configuration not stated),4,4,2.9,2435,-24,11,0
CCn1c(=O)c(-[n+]2ccccc2)c(O)c2ccccc21,-1,-10,3.4,2617,-14,-1,6
O=c1[nH]c2cc3c(cc2cc1CN(CCc1ccccc1)Cc1nnnn1CC1CCCO1)OCO3 (configuration not stated),6,-2,9.0,9737,-6,3,7
CC(=NNc1ccc(S(N)(=O)=O)cc1[N+](=O)[O-])c1ccco1,3,x,5.9,x,x,-3,5
Cc1ccc(C(=O)NN=Cc2sc(=O)n(Cc3cccc(C(=O)O)c3)c2Cl)cc1,5,x,8.9,x,x,16,13
C[N+](C)(C)CC(O)CC(=O)O (configuration not stated),-1&1,-3,7.2&9.2,5730,-7,4&0,3&6
CCc1ccc2[nH]c(=O)c(CN(CCN3CCOCC3)C(=O)Nc3ccccc3F)cc2c1,12,3,7.9,2920,-2,-5,-1

# Not a retest: entries from further up.
SMILES,Sa ugtP lethal,BJeLR lethal,Sa RN4220 lethal,Bead autofluor,PrP UTR inh,Mtb hypoxia rep,Mtb hypoxia rep growth
CCOc1ccc(CCNC(=O)c2cccs2)cc1OCC,6,25,3.9,3723,-21,8,6
CCOC(=O)C(CC)/C(C)=N/NC(=O)c1ccccc1[N+](=O)[O-] (configuration not stated),x,5,x,10637,-34,x,x

# The list goes on.
SMILES,Sa ugtP lethal,BJeLR lethal,Sa RN4220 lethal,Bead autofluor,PrP UTR inh,Mtb hypoxia rep,Mtb hypoxia rep growth
CCN(CC(=O)NC(C)C)C(=O)C(CCSC)NC(=O)c1cccc(C)c1 (configuration not stated),-2,4,-1.1,9775,1,-6,-2
CCCC(=O)C1=C(O)C(C(=O)OC)C(C)(C)CC1=Nc1cccc2ccccc12 (configuration not stated),3,-1,-21,2924,-21,18,-15
CN(C)S(=O)(=O)c1cccc(NC(=O)/C=C/c2ccccc2[N+](=O)[O-])c1,-6,1,6.1,4168,-20,1,1
CCOC(=O)c1c(C)[nH]c(C)c1S(=O)(=O)NCCCc1ccco1,3,0,0.2,5690,-29,5,3
CCCc1cc(=O)[nH]c(SCC(=O)N(CC(C)C)C2CCS(=O)(=O)C2)n1 (configuration not stated),1,-15,2.6,3590,-16,2,4
Cc1cccc(N2CCN(C(=O)Cc3ccc(Br)cc3)CC2)c1C,1,3,-7.2,6054,-17,x,x
COc1ccc2oc(C(=O)NCc3ccccc3CN3CCCC3)c(C)c2c1,3,x,1.1,3344,-5,-10,-4
CC(=O)Nc1sc2c(c1C#N)CC(C)(C)NC2(C)C,2,1,3.5,5718,-9,4,10

# By substructure, the compounds so far with an aryl thioether with sulfur outside any ring (4)
SMILES,Sa ugtP lethal,BJeLR lethal,Sa RN4220 lethal,Bead autofluor,PrP UTR inh,Mtb hypoxia rep,Mtb hypoxia rep growth
COc1ccc(SCC(Cc2ccccc2)N2CCN(C)CCC2=O)cc1 (configuration not stated),-4,x,-0.4,x,x,-3,2
CSc1ccccc1NC(=O)c1cccs1,-9,1,8.7,3771,-5,x,x
CC(=O)Nc1ccc(NC(=O)CSc2nccn2Cc2ccccc2)cc1,-2,-4,-0.1,20023*,-16,-7,19
CCCc1cc(=O)[nH]c(SCC(=O)N(CC(C)C)C2CCS(=O)(=O)C2)n1 (configuration not stated),1,-15,2.6,3590,-16,2,4
